# Source: PubChem
# UUG fidelity – yeast start codon fidelity modulation. S. cerevisiae UUG-firefly luciferase reporter, luminescence/redox ratio. activity score, % at 18.7 µM. 350,000 compounds, 0.13% hits;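 active = replicate mean at a twofold rise or more, about +100% in these data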;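 note: firefly luciferase made from a UUG start codon reports start codon fidelity; reporter light over untreated wells divided by growth signal over untreated wells; some hits fall short of that in this replicate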
# MT1-MMP act inh – blocks activation of human MT1-MMP. P50281. HT1080 RFP-PRO-GFP cells, GFP/RFP ratio fluorescence, overnight; percent of plate control window, DMSO zero. GFP/RFP ratio change, % at 20 µM. 360,000 compounds, 0.061% hits;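 active = GFP/RFP ratio change of at least 30% with cell ATP level not reduced by more than half and red fluorescence within 50% of control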; note: strong numbers were not always called active
#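 Assay system – RFP-PRO-GFP reporter HT1080 cells · Compound dosing – single dose of 20 µM compound, 1% DMSO final · Incubation – overnight compound exposure at 37 °C · Measure – GFP/RFP fluorescence ratio · Benchmarks – DMSO wells and RFP-L50D-GFP cells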
# MT1-MMP act inh RFP – recorded beside MT1-MMP act inh, whose call it bears; RFP signal change, %; measured here: RFP expression control read;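 0 = vehicle wells; hits needed this value within 50% of zero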
# * = called active by the depositor; & = joins results of further samples. This is a subset; the hit share may differ from the screen's.
SMILES,UUG fidelity,MT1-MMP act inh,MT1-MMP act inh RFP
O=C(c1ccc(Cl)c([N+](=O)[O-])c1)N1CCN(S(=O)(=O)c2ccc(Cl)cc2)CC1,-14,-3,-3
COc1ccc(Cl)cc1NC(=O)CN1C(=O)NC(C)(Cc2ccc(OC)c(OC)c2)C1=O (stereo not drawn),2,1,1
Nc1ncnc2c1ncn2[C@@H]1O[C@H](CNCC#Cc2ccccc2)[C@@H](O)[C@H]1O,-7,-1,1
O=C(O)c1cccc(S(=O)(=O)Nc2cccc(S(=O)(=O)N3CCCC3)c2)c1,-5,2,4
COC(=O)c1ccccc1NC(=O)CN1C(=O)NC2(CCCCCCC2)C1=O,-6,7,1
CCOc1ncccc1C(=O)Nc1cccc(S(=O)(=O)NC2=NCCC2)c1,-5,3,9
CC1=C(C(=O)Nc2cc(C(=O)N3CCN(c4ccc(Cl)cc4)CC3)ccc2C)SCCO1,-9,1,-16
CCNC(=O)C1(C)CCN(C(=O)c2ccc(N(C)C)cc2)C1 (stereo not drawn),-22,3,5
CC(C)CC(c1nc2ccccc2[nH]1)n1c(-c2ccccc2Br)nc2ccccc21 (stereo not drawn),-21,1,1
CCOC(=O)C1(C)CCCCN1C(=O)c1ccc(F)c(C)c1 (stereo not drawn),-3,-2,5
COc1ccccc1-n1cnnc1SCC(=O)NC1CCCC1,4,1,2
CN(C)c1ccc(/C=N/NC(=O)c2ccc(-n3cnnn3)cc2)cc1,-13,-4,0
COc1ccc(NC(=O)C2=NN(c3ccccc3)C(=O)CC2)cn1,-5,-2,-1
COc1ccc(OCCN2CCC(C(=O)NC(c3ccc(Cl)cc3)c3ncccc3C)CC2)cc1 (stereo not drawn),-1,1,-4
Cc1cccc(NS(=O)(=O)c2ccc(C)c(C(=O)NCC(c3cccs3)N3CCOCC3)c2)c1 (stereo not drawn),4,1,-3
CCCCn1c(N)c(N(CC(C)C)C(=O)c2ccc(C)o2)c(=O)[nH]c1=O,-10,0,4
COCCn1c(SCC(=O)NCCCN2CCCC2=O)nc2sc3c(c2c1=O)CCCC3,2,-1,0
CN(Cc1ccccc1F)c1cc2c(c3c1ccn3C)C1CCC2C1 (stereo not drawn),-6,-3,-3
CCN(C(=O)COC(=O)c1cc(Cl)ccc1OC)c1c(N)n(Cc2ccccc2)c(=O)[nH]c1=O,2,-3,0
CCOC(=O)c1ccc(NC(=O)c2nc[nH]c2C(=O)NC[C@@H](C)O)cc1,-8,-1,-1
CC(C)n1nc(C(=O)OCC(=O)NCCc2ccc(S(N)(=O)=O)cc2)c2ccccc2c1=O,5,-2,3
Cc1ccc(S(=O)(=O)N(C)C)cc1NC(=O)CN1c2cccc3cccc(c23)S1(=O)=O,-22,5,-4
CCNC(=O)C1(C)CCN(C(=O)c2cc(OC)c(OC)c(OC)c2)C1 (stereo not drawn),-20,0,6
NC(=O)c1cnccc1C=Cc1ccccc1,-8,1,3
CCOC(=O)C(=O)Cc1nc(OCc2ccccc2)cc(OCc2ccccc2)n1,-15,-2,-1
CC1(C(=O)NS(=O)(=O)c2cccc(C#N)c2)CCN1C(=O)Cc1ccccc1 (stereo not drawn),-26,-2,3
Cc1ccccc1CN1CCN(c2ccc(S(=O)(=O)N3CCCC3)cn2)CC1,12,-4,-14
CCCCN(C(=O)CSc1c(C)c(C)cc(C)c1C)c1c(N)n(CCC)c(=O)[nH]c1=O,-10,-9,-4
CNc1nc(NCc2ccc(N(C)C)cc2)c2sccc2n1,8,-1,-6
COc1ccc(NC(=O)N(C)[C@H]2C[C@H]3c4[nH]c5ccc(-c6ccc(OC)cc6)cc5c4CCN3C(=O)[C@H]2[C@H](C)O)cc1,-7,-5,-6
Cc1cc(C)c(NC(=O)COC(=O)C2CCCCC2)c(C)c1,-2,0,2
Cc1nc2ccc(NS(=O)(=O)c3ccc(Br)cc3)cc2s1,-11,-5,-18
Cc1ccc(C(=O)C(C)OC(=O)CCS(=O)(=O)c2ccc(C)cc2)cc1 (stereo not drawn),-14,-2,-1
Cc1ccc(SCC(=O)OCc2csc(CC(=O)Nc3ccccc3C)n2)cc1C,-29,-8,4
CCC(C)(O)c1cnc(CC(C)C)c(=O)n1O (stereo not drawn),-12,6,8
CC(=O)Oc1cc(C(=O)OCC(=O)NC23CC4CC(CC(C4)C2)C3)cc(OC(C)=O)c1OC(C)=O,0,1,-8
COc1ccc(CCNC(=O)c2cccc(S(=O)(=O)N3CCOCC3)c2)cc1OC,-14,1,2
CN(C)CCC(C(=O)c1ccccc1)c1ccccn1 (stereo not drawn),-4,-1,2
COc1ccc(CN(C)C(=O)C2CCN(C(=O)Nc3ccccc3)CC2)cc1OC,-7,-2,3
CCCCCCCCNCCS(=O)(=O)NCc1ccccc1OC,-11,0,4
CN(C(=O)c1ccccc1)C(=O)c1ccccc1,-25,1,1
CN(CC(=O)Nc1ccc(F)cc1)CC(=O)N1CCCCC1,-4,-2,2
O=C(CSc1nc2[nH]c(=O)[nH]c(=O)c2s1)Nc1cccc(F)c1,-16,1,4
Cc1ccc([C@H]2N[C@]3(CCCN(Cc4ccccc4)C3=O)[C@H]3C(=O)N(C)C(=O)[C@@H]23)cc1,-21,-2,0
COc1cc2sc(-c3ccccc3OC)c(-c3ccc(OCCN4CCOCC4)cc3)c2cc1OC,-2,0,-4
CCCS(=O)(=O)NC(=O)C1(C)CCCN(C(=O)c2ccc(C#N)cc2)C1 (stereo not drawn),-7,3,0
CCOC(=O)C1=CCN(S(=O)(=O)c2ccc(F)cc2)C1c1ccccc1 (stereo not drawn),-5,3,0
COc1ccc(S(=O)(=O)N2CCCCC2)cc1NC(=O)CCc1cc(OC)c(OC)c(OC)c1,-4,1,4
O=C(/C=C/c1ccc(S(=O)(=O)N2CCOCC2)cc1)NCCc1ccc(C(F)(F)F)cc1,-8,2,-13
CC(=O)N1CCN(S(=O)(=O)c2cccc(C(=O)OCc3ccc(C(C)(C)C)cc3)c2)CC1,-10,-2,-27
CC1CCCN(C(=O)COC(=O)Cc2c[nH]c3ccccc23)C1 (stereo not drawn),-13,-5,2
COc1ccc(C(=O)NCCc2ccc(C(F)(F)F)cc2)cc1S(=O)(=O)N1CCOCC1,-22,3,-10
CC(=O)Nc1ccc(C=NNc2ccc([N+](=O)[O-])cn2)cc1,-6,-1,-2
O=C(CCSCCC(=O)NN=Cc1cccc(Cl)c1)NN=Cc1cccc(Cl)c1,2,3,-8
CCC(CO)Nc1ccn2nc(-c3ccccc3)cc2n1 (stereo not drawn),-16,3,1
CC(C)c1ccc(CN2CCN(C(=O)CSc3nnnn3C3CC3)CC2)cc1,-2,8,-31
COc1ccc(CNC(=O)/C=C/[C@H]2O[C@@H](n3ccc(=O)[nH]c3=O)[C@H](O)[C@@H]2O)cc1,-21,1,4
COc1ccc(S(=O)(=O)N(C)C[C@@H]2OCc3cnnn3CCCC(=O)N([C@H](C)CO)C[C@H]2C)cc1,-18&1,1,3
CC(NC(=O)c1ccc(NC(=O)CC2SC(N3CCCC3)=NC2=O)cc1)c1ccc(F)cc1 (stereo not drawn),-4,-3,0
Cc1ccc(C(=O)N[C@H](C(=O)NC2CCCCCCC2)C(C)C)cc1,-5,-4,-1

# An excerpt of these results, with tabs.
mol	UUG fidelity	MT1-MMP act inh	MT1-MMP act inh RFP
CC1CCCN(C(=O)COC(=O)Cc2c[nH]c3ccccc23)C1 (stereo not drawn)	-13	-5	2
COc1ccc(C(=O)NCCc2ccc(C(F)(F)F)cc2)cc1S(=O)(=O)N1CCOCC1	-22	3	-10

# Later entries.
SMILES,UUG fidelity,MT1-MMP act inh,MT1-MMP act inh RFP
CC(C)(C)c1ccc(CC(=O)N2CCC2(C)C(=O)N2CCCCC2)cc1 (stereo not drawn),-7,5,2
Cc1ccc(SCC(=O)NC(=O)NC2CCCC2)c(C)c1,-2,1,-1
CC1=CC(C)C(=O)N(C)C(C)=C1 (stereo not drawn),-3,3,5
O=S1(=O)C=C[C@@H](COCc2ccccc2)N1Cc1ccc(Br)cc1,3,2,-3
CCC1(c2ccc(F)cc2)NC(=O)N(CC(=O)Nc2cc(C)on2)C1=O (stereo not drawn),-9,-2,-1
CC1c2cccn2CCN1S(=O)(=O)c1ccc(F)cc1 (stereo not drawn),3,-9,0
CCOc1ccc(OCCC(=O)OCC(=O)Nc2cccc(S(=O)(=O)N3CCCCC3)c2)cc1,-16,11,-1
C[C@H](CO)N1C[C@H](C)[C@H](CN(C)Cc2cccc(C(F)(F)F)c2)OCc2ccccc2-c2c(n(C)c3ccccc23)C1=O,-13,3,4
Nc1nc(Cl)nc2c1ncn2C1OC(CO)C(O)C1O (stereo not drawn),-5,-5,-4
O=c1ccc(S(=O)(=O)N2CCCC2)cn1Cc1nc(-c2ccccc2)no1,-9,3,0
CCOC(=O)c1ccccc1NC(=O)COC(=O)c1ccc(OCC(=O)N2CCOCC2)c(OCC)c1,-9,-5,-9
NC(=S)NN=Cc1cc(-c2cccc(N)c2)ccn1,-21,2,-18
CS(=O)(=O)Nc1ccc2c(c1)[C@H]1C[C@H](CC(=O)NCc3ccccc3)O[C@H](CO)[C@H]1O2,-17,1,4
CC1(C(=O)NS(=O)(=O)Cc2cccc(Cl)c2)CCN1C(=O)CC1CCCC1 (stereo not drawn),-6,3,1
CCOC(=O)c1cnc[nH]c1=O,9,-2,1

# Sorted by the number under UUG fidelity (lowest first): some entries from above.
SMILES,UUG fidelity,MT1-MMP act inh,MT1-MMP act inh RFP
CS(=O)(=O)Nc1ccc2c(c1)[C@H]1C[C@H](CC(=O)NCc3ccccc3)O[C@H](CO)[C@H]1O2,-17,1,4
CCOc1ccc(OCCC(=O)OCC(=O)Nc2cccc(S(=O)(=O)N3CCCCC3)c2)cc1,-16,11,-1
C[C@H](CO)N1C[C@H](C)[C@H](CN(C)Cc2cccc(C(F)(F)F)c2)OCc2ccccc2-c2c(n(C)c3ccccc23)C1=O,-13,3,4
CC1(C(=O)NS(=O)(=O)Cc2cccc(Cl)c2)CCN1C(=O)CC1CCCC1 (stereo not drawn),-6,3,1
Nc1nc(Cl)nc2c1ncn2C1OC(CO)C(O)C1O (stereo not drawn),-5,-5,-4

# (more compounds)
SMILES,UUG fidelity,MT1-MMP act inh,MT1-MMP act inh RFP
CC(C)C[C@@H](CNCC(=O)[C@H](Cc1c[nH]c2ccccc12)NC(=O)c1[nH]cnc1C(=O)N[C@@H](C)CN)NC(=O)c1nc[nH]c1C(=O)N[C@@H](CC(=O)O)C(=O)O,154*,-1,6
Cc1cn([C@H]2C[C@H](O)[C@@H](CCC(=O)NCc3ccc(N(C)C)cc3)O2)c(=O)[nH]c1=O,-10,2,7
CCn1nnc2cc(C(=O)N(CCOC)CC(=O)Nc3cccc(C)c3C)ccc21,-12,-1,3
CC(C)C(NC(=O)c1ccc(C(C)(C)C)cc1)C(=O)Nc1ccc(N2CCOCC2)cc1 (stereo not drawn),-7,-8,-7
CCOc1cc(N2CCOCC2)c(OCC)cc1NC(=O)c1nn(CC)c(=O)c2ccccc12,-13,2,-4
CC(=O)c1cccc(OCC(=O)Nc2ccccc2N2CCOCC2)c1,-10,-2,-2
COc1ccc2oc(C(=O)OCC(=O)NCc3ccc(OC)c(OC)c3)c(C)c2c1,-3,-1,-10
CCCN(CC(=O)Nc1ccc(F)c(F)c1F)C(=O)Cc1ccc(S(=O)(=O)N2CCOCC2)s1,-13,-1,2
CCOc1cc2c(cc1OCC)CN(CC(=O)Nc1ccccc1C(=O)NC1CC1)CC2,-29,-2,2
C=CC(=O)Nc1cccc(Nc2nc(N[C@H]3CC[C@H](N(C)C)CC3)nc3c2ncn3C(C)C)c1,-11,-30,-20
COc1ccccc1CNC(=O)COc1cc(O)c2c(c1)OC(C)(C)CC2=O,-9,6,-3
CCOC(=O)c1ccc(NC(=O)C2(N3C(=O)c4ccccc4C3=O)CCCC2)cc1,-2,1,4
Cc1cc2c(c(C)c1CCO)C(=O)[C@H](C)C2,-11,-2,1
COc1ccc(CCN(C)C(=O)c2c(C)noc2C)cc1OC,-13,-1,-6
COc1cccc(CN(C)S(=O)(=O)c2ccccc2Br)c1,3,-2,-2
C[C@]12c3[nH]c4cc(-c5ccco5)ccc4c3CCN1C(=O)[C@@H](CC(=O)NCCN1CCOCC1)C[C@@H]2C(=O)N1CCCCC1,5,-3,-1
COc1cccc(NC(=O)CN(C)C(=O)c2cccnc2Nc2cccc(C(F)(F)F)c2)c1,6,8,3
Cc1ccc(CN2CC(C(=O)Nc3ncc(C)s3)CC2=O)cc1 (stereo not drawn),-6,-2,-1
C=CC[C@@H](CC(=O)N(CCO)Cc1ccccc1)C(=O)N[C@H](C)COC(=O)[C@@H](CC=C)Cc1ccc(F)cc1,10,1,-17
COc1cccc(CC(=O)Nc2ccc3c(c2)OC2(CCCC2)O3)c1,-12,-1,0
CCCNC(=O)C1(C)CCCN(C(=O)c2ccccc2OC(F)(F)F)C1 (stereo not drawn),-9,1,0
COC1=CC(=O)C=C(OC)C1(O)CC(C)=O,-22,-6,1
CCN(CC)c1ccc(C(=C2C=CC(=[N+](CC)CC)C=C2)c2ccc(S(=O)(=O)O)cc2S(=O)(=O)[O-])cc1,30,-18,-13

# Fetched one by one from the entries so far, two records:
SMILES,UUG fidelity,MT1-MMP act inh,MT1-MMP act inh RFP
C[C@]12c3[nH]c4cc(-c5ccco5)ccc4c3CCN1C(=O)[C@@H](CC(=O)NCCN1CCOCC1)C[C@@H]2C(=O)N1CCCCC1,5,-3,-1
COc1cccc(CC(=O)Nc2ccc3c(c2)OC2(CCCC2)O3)c1,-12,-1,0
